Assay outcomes deposited in PubChem by National Center for Advancing Translational Sciences (NCATS).
Cruzain Triton: blocks cruzain activity in presence of Triton detergent. P25779. purified cruzain, Z-FR-AMC fluorescence, 0.01% Triton. Potency, µM, inactives show max response, negative = inhibition, actives largely listed as inhibitors. 200,000 compounds, 0.43% hits;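 also: plate controls were neutral wells for no effect and buffer without enzyme for full effect; nearly all actives have a fitted effect of over 40% in size; top concentration of the series not given in the record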
Target sequence (P25779 123-467 limits assumed): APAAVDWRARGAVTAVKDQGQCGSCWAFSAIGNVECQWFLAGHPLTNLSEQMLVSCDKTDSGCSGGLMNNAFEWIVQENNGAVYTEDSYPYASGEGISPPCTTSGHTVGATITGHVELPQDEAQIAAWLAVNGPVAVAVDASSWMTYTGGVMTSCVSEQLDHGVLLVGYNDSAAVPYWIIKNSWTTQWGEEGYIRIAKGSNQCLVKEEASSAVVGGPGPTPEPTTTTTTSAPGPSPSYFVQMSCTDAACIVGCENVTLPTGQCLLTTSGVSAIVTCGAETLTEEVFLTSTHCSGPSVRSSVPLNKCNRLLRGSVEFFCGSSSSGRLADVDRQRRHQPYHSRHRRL
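Z-FR-AMC hydrolysis (2 uM substrate) by cruzain (1.5 nM) monitored kinetically at ex 360/em 450 nm after 15 min room-temperature compound exposure; 0.01% Triton X-100, pH 5.5, 5 mM DTT.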
MARV entry inh: blocks Marburg virus binding to or entry into cells | Marburg virus pseudotyped entry inhibition, cell reporter; control for the full effect not named in the record; about a third of the inactives were read at about 46 µM | Potency, µM (top dose mostly 37.8 µM), for the others: top-dose activity change, negative = inhibition, most hits filed as inhibitors | 300,000 compounds, 1.8% hits | AID 540276; active = well fitted inhibition curve with a large enough effect; inconclusive = small, poorly fitted or top-dose-only effect, or effect the other way; inactive = flat fitted curve, though single readings scatter; tested in HEK293 cells; about a fifth of its hits are not listed in these tables; also: % is scaled to controls: 0 for no effect and ±100 for the full control effect; luciferase read-out
RE007 growth inh: less growth of the S. pombe RE007 Vpr strain. AID 651644. Potency, µM (titrated, usually from 92.2 µM), for the others: at the top dose activity change, negative = less growth. 360,000 compounds, 0.21% hits. S. pombe RE007 Vpr strain, BacTiter-Glo ATP luminescence, 24 h; control for the full effect not named in the record; active = well fitted falling curve with a large enough effect; inconclusive = small, poorly fitted or top-dose-only effect; inactive = no such curve, though single readings can be large or run the other way;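 also: % is scaled to controls: 0 for no effect and ±100 for the full control effect; nearly all actives have a fitted effect of over 50% in size; the assay follows cell death caused by Vpr and the record does not say whether a fall means rescue or toxicity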
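Fission yeast RE007 carrying one integrated HIV-1 vpr copy, seeded at OD 0.01 in PMG+AL medium with 23 nL pinned compound. Grown 24 h at 30 degrees; viability read by BacTiter-Glo luminescence after 5 min.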
NS1 inh: inhibitors of influenza NS1 protein function. S. cerevisiae slowed by influenza A NS1, growth recovery by OD600. AID 2326. Potency, µM (doses to about 46.1 µM), for the others: top-dose activity, positive = more growth. 270,000 compounds, 0.4% hits; active means well fitted rising curve with a large enough effect; inconclusive means small, poorly fitted or top-dose-only effect; inactive means no such curve, though single readings can be large or run the other way; also: nearly all actives have a fitted effect of over 50% in size
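A cell-based growth assay was used: compounds that relieve NS1-induced slow growth of budding yeast raise OD600. Assay medium was yeast nitrogen base with ammonium sulphate and -URA supplement, pH 6.0, with 2% galactose.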
SARS PLP yeast: SARS-CoV PLP inhibition in yeast | 330,000 compounds, 0.19% hits | AID 485353 | S. cerevisiae expressing SARS-CoV PLpro, growth rescue; control for the full effect not named in the record | Potency, µM (titrated, usually from 32.9 µM), for the others: at the highest dose activity, positive = growth rescue; active means well fitted rising curve with a large enough effect; inconclusive means small, poorly fitted or top-dose-only effect; inactive means no such curve, though single readings can be large or run the other way; also: 0% is about no effect; nearly all actives have a fitted effect of over 55% in size; growth read by luminescence after 48 h
Lassa entry inh: inhibitors of Lassa virus binding or cell entry | Lassa virus pseudotype entry inhibition, cell reporter; control for the full effect not named in the record | Potency, µM (titrated, usually from 37.9 µM), inactives show top-dose activity change, negative = inhibition, usual class: inhibitors | 300,000 compounds, 1.2% hits | AID 540256; active means well fitted inhibition curve with a large enough effect; inconclusive means small, poorly fitted or top-dose-only effect, or effect the other way; inactive means flat fitted curve, though single readings scatter; tested in HEK293 cells; also: % is scaled to controls: 0 for no effect and ±100 for the full control effect; nearly all actives have a fitted effect of over 50% in size; luciferase read-out
StopGo reporter: lowers the luciferase signal of an FMDV 2A StopGo reporter | human cells with a luciferase reporter of 2A StopGo recoding; control for the full effect not named in the record | Potency, µM (titrated, usually from 57.9 µM), for inactives: top-dose signal change, negative = less light | 410,000 compounds, 1.2% hits | AID 1159524; active = well fitted falling curve with a large enough effect; inconclusive = small, poorly fitted or top-dose-only effect; inactive = no such curve, though single readings can be large or run the other way; tested in HEK293T cells; also: % is scaled to controls: 0 for no effect and ±100 for the full control effect; nearly all actives have a fitted effect of over 45% in size; luciferase light after 4 h
Cruzain inh noDet: cruzain (T. cruzi) inhibition without detergent; 200,000 compounds, 2.3% hits; purified cruzain, Z-FR-AMC fluorescence, no detergent; Potency, µM, for inactives: max response, negative = inhibition, actives largely listed as inhibitors; P25779;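 also: plate controls were enzyme without inhibitor for no effect and buffer without enzyme for full effect; nearly all actives have a fitted effect of over 40% in size; top concentration of the series not given in the record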
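Purified cruzain at 1.5 nM, pre-incubated 15 min with compound at room temperature in 100 mM sodium acetate pH 5.5, 5 mM DTT, 0.00005% Triton X-100. Reaction started with 2 uM Z-FR-AMC; AMC fluorescence increase over 60 s gives rate.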
Active calls of the source: *; ? = inconclusive; · = no result given; & = joins results of further samples; [ ] = remark or other dose. Unless noted, calls follow the shape of the dose curve; as a rule, active = well fitted curve in the direction sought with a large enough effect; inconclusive = small, poorly fitted or top-dose-only effect, or another doubt; inactive = no such curve, though single readings can be large; an effect the other way counts as inactive or inconclusive. Potency is read from the fitted curve at half-maximal effect.

SMILES | Cruzain Triton | MARV entry inh | RE007 growth inh | NS1 inh | SARS PLP yeast | Lassa entry inh | StopGo reporter | Cruzain inh noDet
Cc1ccccc1-c1nc(CN2CCC(C(=O)NCCc3ccccc3)CC2)c(C)o1 | 0.8% | 20%[46.1 µM] | · | · | · | -23%[46.1 µM] | -8% | -13%
Cn1ncc2c(Nc3cccc([N+](=O)[O-])c3)ncnc21 | · | · | -4% | -5% | -3% | · | 16% | ·
CCOC(=O)C1=C(C)Nc2nnnn2C1c1ccccc1Cl (stereo not drawn) | -1.9% | ? | -2% | 9% | -1% | 6% | 0% | 1%
O=c1[nH]cnc2sc3c(c12)CCC3 | · | -1%[46.1 µM] | 4% | -4% | -1% | 23%[46.1 µM] | -26% | ·
COc1cc2c(CCNC(C)=O)c[nH]c2cc1Cl | -3.0%&-4.4% | ? | 1%[18.4 µM] | 1% | · | 0% | -14%&9%&-16% | -3%&-1%
COc1ccc(NC(=O)COC(=O)C(CC(C)C)N2C(=O)C3CC=CCC3C2=O)cc1Cl (stereo not drawn) | 7.1µM* | 8% | 4% | -33% | -10% | -24% | -8% | 10µM*
O=C(NN1C(=O)C2C(c3ccccc3)C=CC(c3ccccc3)C2C1=O)c1cccc(Br)c1 (stereo not drawn) | 0.3% | -1% | 8% | 9% | -14% | 1% | ? | ?
Oc1c(I)cc(I)c2cccnc12 | -0.5%&4.0% | 3% | -30% | -48% | -74% | -9% | -22%&-3% | ?
O=C(NC(=S)Nc1ccc2oc(=O)ccc2c1)c1ccc(-c2cccc(Cl)c2Cl)o1 | -11% | 9% | · | 5% | 4% | 4% | · | 5µM*
Cc1cccc(CC(C)NC(=O)c2cc(COc3ccc(C)c(C)c3)on2)n1 (stereo not drawn) | · | 2% | -28% | -50% | -4% | -19% | 7% | ·
O=C(Cn1nnc(-c2ccccc2Cl)n1)N/N=C/c1ccc(-c2cccc(Cl)c2)o1 | -3.9% | -24% | -15% | 12% | -4% | -15% | -18% | 32µM*
CN(Cc1ccccc1)C(=O)c1ccc2c(c1)N(Cc1ccccc1Cl)C(=O)c1ccccc1S2 | -2.8% | · | · | · | · | ? | 17% | ?
CCn1nc(C)c(C(=O)Nc2cc(Oc3ccc(Cl)cc3)cc([N+](=O)[O-])c2)c1C | 1.6% | ? | 9% | ? | -23% | -18% | -11% | ?
Cc1noc(C)c1C(=O)Nc1cccc2ncccc12 | · | -7%[46.1 µM] | -18% | -1% | 3% | 9% | 0% | ·
CCOc1cc2[nH]c(=O)n(Cc3ccc(C(=O)NCCN(CC)CC)cc3)c(=O)c2cc1OCC | 0.8% | · | · | · | · | -9%[46.1 µM] | -11% | -7%
CCc1c(C)[nH]n(-c2nc(-c3ccccc3)cs2)c1=O | · | -21%[46.1 µM] | -19% | · | -1% | 2% | 30% | ·
COc1ccc(OC)c(C(=O)COC(=O)CNC(=O)c2ccccc2)c1 | 14µM* | ? | 4% | -10% | 11% | 6% | -4% | 13µM*
COc1ccc(NC(=O)c2ccco2)cc1NC(=O)c1ccc(Br)o1 | 1.1% | -30% | -28% | -31% | -9% | -7% | -15% | -3%
NC(=O)C1CCCN(S(=O)(=O)c2ccccc2)C1 (stereo not drawn) | -2.9% | 0% | 1% | 3% | -2% | -3% | · | 0%
O=C(Cc1ccc(Cl)cc1)Nc1ccc2nn(-c3ccc(Cl)cc3)nc2c1 | -4.6% | · | · | · | · | 7%[46.1 µM] | -8% | -18%
COc1cccc(-c2cc(=O)c3cc(NC(=O)c4ccc(N(C)C)cc4)ccc3[nH]2)c1 | 2.3%&3.9% | ? | 6% | 13µM* | 5% | 0.92µM* | -20% | -20%&-10%
CCCSc1nnc(NC(=O)Nc2ccccc2)s1 | -3.3% | -23%&-23% | · | -7% | 28% | 12% | 6% | -26%
OCC1OC(n2cnc3c(/C=C(\O)c4ccccc4)ncnc32)C(O)C1O (stereo not drawn) | · | ? | 9% | · | · | ? | 29% | ·
O=C(NC1C(=O)NNC1c1ccc(Cl)cc1)c1ccc(F)cc1 (stereo not drawn) | · | · | -5% | -1% | 2% | · | 4% | ·
CCCCC(=O)Oc1ccc2oc(-c3ccc(OC)cc3)cc(=O)c2c1 | -1.0% | ? | · | · | · | -13%[46.1 µM] | 19% | 1%
CC(C)CC(=O)N1CCC(O)(CS(=O)(=O)Cc2ccc(Cl)cc2)CC1 | 4.4% | -3% | -16%[3.69 µM] | 8% | 2% | ? | 9% | 18%
NC1C=CC=C(C(=O)O)C1 (stereo not drawn) | 6.7% | -4%&-4%&39%&-4%&-4% | 9%[18.4 µM] | ? | · | ? | -16%&3% | 6%
CN(C)c1ccc(C=c2c3ccccc3n3c2cc(-c2ccccc2)[n+]3C)cc1 | · | 2.8µM* | ? | · | · | 2.8µM* | 16µM* | ·
Cc1ccc(NC(=O)CN(C)CC(=O)Nc2ccccc2Oc2ccccc2)cc1 | · | 18%[46.1 µM] | 3% | · | -1% | 6% | -2% | ·
COc1ccc(-n2nc(C(=O)Nc3cc(OC)c(OC)c(OC)c3)c(=O)n(C)c2=O)cc1 | -0.1% | · | · | · | · | 13%[46.1 µM] | 5% | -13%
CN(C)c1ccc(C(=O)Nc2ccc(O)c3c(=O)cc(-c4ccccc4Cl)oc23)cc1 | · | · | -12% | 2% | 2% | · | -11% | ·
OCCC1CN(Cc2ccc(-n3cccn3)cc2)CCN1Cc1ccccc1 (stereo not drawn) | · | -22%[46.1 µM] | 1% | -1% | -1% | -28%[46.1 µM] | -15% | ·
CCOC(=O)Cn1c(=O)c2c(nc3n2CCCN3CCc2ccccc2)n(C)c1=O | · | 0%[46.1 µM] | -4% | -1% | 1% | ? | -20% | ·
CCOC(=O)c1cc2c(=O)n3ccccc3nc2n(Cc2ccco2)c1=NC(=O)c1ccc(C)c(C)c1 | -4.8% | 2%[46.1 µM] | · | · | · | 10%[46.1 µM] | -11% | -5%
CC(=O)Nc1ccc(NC(=O)c2ccccc2N(C)S(=O)(=O)c2ccccc2)cc1 | · | -4% | -7% | 13% | -1% | 1% | 3% | ·
O=C(O)CC(NS(=O)(=O)c1c(F)cc(F)cc1Br)c1ccccc1Cl (stereo not drawn) | · | -1%[46.1 µM] | 6% | -4% | 2% | -5%[46.1 µM] | 18% | ·
CC(=O)NC(=S)NNC(=O)c1ccc(Br)cc1 | · | ? | -8% | -5% | 1% | -18% | 11% | ·
S=C(Nc1ccccc1)Nc1ccc(Br)cn1 | · | -3%[46.1 µM] | -5% | · | 16% | 13% | -15% | ·
CCN(Cc1ccccc1)S(=O)(=O)c1cc(C(=O)NC2CCCCCC2)ccc1OC | -6.0% | ? | 10% | 26% | 5% | ? | 8% | 14%
O=C1c2ccccc2C(O)(Cc2ccccc2)N1CCCN1CCOCC1 (stereo not drawn) | 5.7% | 1% | -4% | 0% | 1% | 23% | · | 1%
CCCCNC(=O)CCNS(=O)(=O)c1ccc(C)cc1 | 9.9% | 5% | 9% | 4% | 0% | -11% | 20% | 8%
COc1ccc(C(=O)c2oc3ccccc3c2NC(=O)COc2ccccc2)cc1 | -0.4% | · | · | · | · | 4%[46.1 µM] | 0% | 0%
Cc1cccc(Nc2c3c(nc4ccccc24)CCC3)c1 | · | 11µM* | -11% | -41% | -1% | ? | ? | ·
CCOC(=O)C/C(C)=N\Nc1nc(-c2ccccc2)cs1 | · | 14%[46.1 µM] | 31% | · | 1% | 7% | 29% | ·
CCC(C)(C)n1nnnc1C(c1cc2cc(OC)c(OC)cc2[nH]c1=O)N1CCc2ccccc21 (stereo not drawn) | -9.9% | ? | 9% | 14µM* | 0% | 1% | ? | ?
Cc1ccc(S(=O)(=O)NC(=O)c2ccc(F)cc2)c(C)c1 | · | · | 8% | 11% | 0% | · | 26% | ·

3 compounds from above, sorted by length of the SMILES, falling.
SMILES | Cruzain Triton | MARV entry inh | RE007 growth inh | NS1 inh | SARS PLP yeast | Lassa entry inh | StopGo reporter | Cruzain inh noDet
CN(C)c1ccc(C(=O)Nc2ccc(O)c3c(=O)cc(-c4ccccc4Cl)oc23)cc1 | · | · | -12% | 2% | 2% | · | -11% | ·
O=C(Cc1ccc(Cl)cc1)Nc1ccc2nn(-c3ccc(Cl)cc3)nc2c1 | -4.6% | · | · | · | · | 7%[46.1 µM] | -8% | -18%
Cc1noc(C)c1C(=O)Nc1cccc2ncccc12 | · | -7%[46.1 µM] | -18% | -1% | 3% | 9% | 0% | ·

Reformatted with each value named: 4 of the compounds above.
> CCOC(=O)c1cc2c(=O)n3ccccc3nc2n(Cc2ccco2)c1=NC(=O)c1ccc(C)c(C)c1
  Cruzain Triton: -4.8%
  MARV entry inh: 2%[46.1 µM]
  RE007 growth inh: ·
  NS1 inh: ·
  SARS PLP yeast: ·
  Lassa entry inh: 10%[46.1 µM]
  StopGo reporter: -11%
  Cruzain inh noDet: -5%
> CC(=O)Nc1ccc(NC(=O)c2ccccc2N(C)S(=O)(=O)c2ccccc2)cc1
  Cruzain Triton: ·
  MARV entry inh: -4%
  RE007 growth inh: -7%
  NS1 inh: 13%
  SARS PLP yeast: -1%
  Lassa entry inh: 1%
  StopGo reporter: 3%
  Cruzain inh noDet: ·
> O=C(O)CC(NS(=O)(=O)c1c(F)cc(F)cc1Br)c1ccccc1Cl (stereo not drawn)
  Cruzain Triton: ·
  MARV entry inh: -1%[46.1 µM]
  RE007 growth inh: 6%
  NS1 inh: -4%
  SARS PLP yeast: 2%
  Lassa entry inh: -5%[46.1 µM]
  StopGo reporter: 18%
  Cruzain inh noDet: ·
> CC(=O)NC(=S)NNC(=O)c1ccc(Br)cc1
  Cruzain Triton: ·
  MARV entry inh: ?
  RE007 growth inh: -8%
  NS1 inh: -5%
  SARS PLP yeast: 1%
  Lassa entry inh: -18%
  StopGo reporter: 11%
  Cruzain inh noDet: ·
